Screening data as filed in PubChem.
Env fusion inh – HIV envelope-mediated fusion inhibition. AID 651610. inhibition, % at 12.3 µM. 1.1% of 360,000 active. HeLa-JRFL Env/CEM21 cell fusion, luciferase;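 active = mean replicate inhibition score of at least 50 and every replicate individually at or above 50; inconclusive = only one of the two criteria met; inactive = mean below 50 and not all replicates reaching 50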;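 note: 0% = plate neutral controls and 100% = maraviroc near 300 nM; one replicate is shown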
eIF4H FP inh – inhibitors of RNA binding by human eIF4H; Q15056; AID 2012; eIF4H fluorescence polarization binding assay; 0.94% of 290,000 active; inhibition, % at 35 µM;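 active = 50% or more with normal probe brightness, or confirmed in later tests; inconclusive = above 50% with abnormal brightness, or retests that disagree; inactive = below 50% or failed in later tests; about a fifth of its hits are not listed in these tables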;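 note: calls also rest on retests at 20 µM and on dose response follow-up; 0% = protein and probe with vehicle and 100% = probe without protein; strong numbers were not always called active; many hits fall short of the cut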
CSC inhib – cancer stem cell inhibition | cancer stem cell-like cells viability, luminescence | inhibition, % at 7.5 µM | 1.1% of 300,000 active | AID 2717;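 active = mean at 75% or more and at least half the replicates too; inconclusive = mean and replicates disagree; tested in HMLE shEcad cells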;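 note: 0% = median of negative and 100% = median of positive control wells; the first replicate is given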
Yeast UUG start – modulators of start codon recognition fidelity in yeast. S. cerevisiae UUG-firefly luciferase reporter, luminescence/redox ratio. activity score, % at 18.7 µM. 0.13% of 350,000 active;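 active = replicate mean at a twofold rise or more, about +100% in these data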;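 note: firefly luciferase made from a UUG start codon reports start codon fidelity; reporter light over untreated wells divided by growth signal over untreated wells; some hits fall short of that in this replicate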
MT1-MMP act inh – inhibitors of human MT1-MMP activation. HT1080 RFP-PRO-GFP cells, GFP/RFP ratio fluorescence, overnight; percent of plate control window, DMSO zero. AID 651647. 0.061% of 360,000 active. GFP/RFP ratio change, % at 20 µM;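 active = GFP/RFP ratio change of at least 30% with cell ATP level not reduced by more than half and red fluorescence within 50% of control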; note: strong numbers were not always called active
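Material: RFP-PRO-GFP reporter HT1080 cells. Dosing: single-point 20 µM compound, 1% DMSO. Controls: DMSO and RFP-L50D-GFP cell wells. Timing: cells overnight before dosing, compound overnight, 37 °C, 5% CO2. Measure: GFP/RFP fluorescence ratio.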
Rce1 inhib – inhibitors of yeast Ras-converting enzyme. calls only. 0.27% of 290,000 active. AID 2563. yeast membranes, quenched prenylated peptide cleavage fluorescence;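 active = fall in fluorescence gain of 50% or more versus controls, with final raw signal at or below 3038400; inconclusive = same 50% fall but final raw signal above 3038400; inactive = fall in fluorescence gain under 50%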;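 note: plate controls were neutral control wells for no effect and wells lacking membranes for full effect; tested at 10 µM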
Target sequence (Q03530 whole entry, looked up): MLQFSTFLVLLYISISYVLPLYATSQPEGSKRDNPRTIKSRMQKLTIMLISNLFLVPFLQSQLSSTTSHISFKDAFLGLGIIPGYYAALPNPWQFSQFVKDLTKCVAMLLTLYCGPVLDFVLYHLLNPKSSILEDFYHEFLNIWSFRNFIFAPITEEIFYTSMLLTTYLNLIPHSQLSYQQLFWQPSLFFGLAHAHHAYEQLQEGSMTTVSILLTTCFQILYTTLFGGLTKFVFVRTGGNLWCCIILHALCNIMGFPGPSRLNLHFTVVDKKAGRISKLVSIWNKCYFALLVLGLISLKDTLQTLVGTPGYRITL
PABP polyA inh – PABP-poly(A) binding inhibition; 1% of 290,000 active; inhibition, % at 35 µM; P11940; AID 2014; PABP-poly(A) RNA binding, fluorescence polarization;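 active = 50% or more with normal probe brightness, or confirmed in later tests; inconclusive = above 50% with abnormal brightness, or retests that disagree; inactive = below 50% or failed in later tests; about a fifth of its hits are not listed in these tables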;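 note: calls also rest on retests at 20 µM and on dose response follow-up; controls were probe without protein and protein plus probe with vehicle; some compounds called inactive have numbers as strong as hits; many hits fall short of the cut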
eIF4H FP inh retest – recorded beside eIF4H FP inh, whose call it bears; inhibition, %; compound at 20 µM; confirmation average;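 mean of two retest wells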
PABP polyA inh retest – further read-out of PABP polyA inh, marked with its call; inhibition, %; compound at 20 µM; confirmation repeats;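 mean of two retest wells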
MT1-MMP act inh RFP – further read-out of MT1-MMP act inh, marked with its call; RFP signal change, %; measured here: RFP expression control read;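 0 = vehicle wells; hits needed this value within 50% of zero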
* hit, by the source's call; i = inactive; ? = inconclusive; nt = not tested or not shown; & = joins results of further samples.

SMILES | Env fusion inh | eIF4H FP inh | CSC inhib | Yeast UUG start | MT1-MMP act inh | MT1-MMP act inh RFP | Rce1 inhib | PABP polyA inh | others
CCCS(=O)(=O)NC(=O)C1(C)CCN(C(=O)c2ccc(SC(F)(F)F)cc2)C1 (configuration not stated) | 7 | nt | nt | -30 | 1 | 5 | nt | nt
CC1=C(C)/C(=N\OS(=O)(=O)c2ccc(C)cc2)C=CC1=O | -298 | -1 | 89* | nt | 6 | -1 | nt | 5
CCC(C)(C)NC(=O)C(c1cccc(OC)c1OC)N(CC(C)C)C(=O)CCC(=O)Nc1cc(C)on1 (configuration not stated) | -19 | 0 | -14 | nt | -2 | 2 | i | 4
CCS(=O)(=O)Nc1ccc(C2=NN(C(=O)c3ccco3)C(c3ccco3)C2)cc1 (configuration not stated) | 11 | nt | -6 | -11 | -7 | -13 | i | nt
COc1ccc(Cc2noc(CN3CCN(Cc4csc(C)n4)CC3)n2)cc1OC | -1 | 1 | -1 | nt | 1 | 2 | i | -10
COc1ccc(C(C)(NC(C)=O)c2nc(-c3ccccc3OC)cs2)cc1 (configuration not stated) | 2 | nt | nt | -6 | -2 | 1 | nt | nt
COCCn1c(=S)[nH]c2cc(C(=O)N3CCN(C4CCCCC4)CC3)ccc2c1=O | 0 | nt | nt | -13 | -2 | 2 | nt | nt
CC(C)Oc1cc(F)ccc1-c1cc(C(=O)Nc2cccc(Cl)c2)[nH]n1 | -4 | nt | nt | -7 | -1 | -6 | nt | nt
CCOc1ccc(N/N=C(/C#N)C(N)=O)cc1 | nt | -4 | -1 | -40 | 5 | 4 | i | 6
NC(=O)N/N=C/CCc1ccccc1 | -7 | 4 | 0 | nt | -1 | -1 | i | 0
CN(NC(=O)c1ccccc1)C1=NS(=O)(=O)c2ccccc21 | -7 | -6 | -19 | nt | -1 | 2 | i | -6
CCSc1ncc(Cl)c(C(=O)Nc2ccccc2OC)n1 | 6 | -4 | 17 | -29 | 1 | 0 | i | 3
CCOc1ccccc1NC(=O)CSc1nnc2ccc(-c3ccncc3)nn12 | 23 | -2 | -12 | nt | -4 | 3 | i | -18
O=S(=O)(NCc1ccccc1)c1cccc(S(=O)(=O)N2CCOCC2)c1 | -10 | -9 | -4 | 14 | 4 | -8 | i | -13
Cc1ccc(N2CCN(/N=C/c3ccncc3)CC2)cc1 | 0 | 2 | -4 | -17 | -3 | -17 | i | 6
COCCNc1nc(NCCOc2ccccc2Cl)c2sc(-c3ccccc3)cc2n1 | 10 | nt | nt | -12 | -2 | -15 | nt | nt
CNC(=O)CSc1nnc(-c2ccco2)n1-c1ccc(C)cc1 | -18 | 8 | -1 | -11 | -3 | -2 | i | 21
Cc1ccc(C(=O)N[C@H](C(=O)OCc2nnc(-c3ccccc3)o2)C(C)C)cc1 | -14 | 0 | -9 | -5 | 3 | 2 | i | 4
CC(C)CN1CCNC(=O)C1CC(=O)N(C)CC1CCOCC1 (configuration not stated) | -2 | -2 | -8 | 6 | -1 | 5 | i | 9
CCOC(=O)c1cc2sc(C)cc2n1C(C)C(=O)OCC (configuration not stated) | nt | -1 | -14 | nt | -3 | -5 | i | 0
Cc1nnc(NC(=O)CSc2nc3ccccc3[nH]2)s1 | -19 | -1 | -6 | nt | 5 | 4 | i | 18
CSc1ccccc1C(=O)Nc1ccccc1C(=O)N1CCCC1 | -3 | 2 | nt | -17 | -1 | 1 | i | 16
CC12CCC(=O)N1C(C(=O)NCCN1C(=O)S/C(=C\c3ccccc3Cl)C1=O)CS2 (configuration not stated) | -7 | nt | nt | -14 | -3 | -5 | nt | nt
COc1ccc(-n2c(N)c(C(=O)NCc3ccco3)c3nc4ccccc4nc32)cc1 | nt | 6 | -6 | nt | -28 | -3 | i | 12
O=C(CCN1CCN(C(=O)c2ccco2)CC1)Nc1ccc(F)cc1 | nt | -1 | nt | -2 | 0 | 2 | nt | 0
O=C1C(=O)N(Cc2cccnc2)C(c2ccccn2)/C1=C(/O)c1ccc(F)cc1 (configuration not stated) | 0 | -10 | 1 | -9 | -1 | -2 | i | 17
O=C(CCc1nc(-c2ccccc2F)no1)NCc1ccco1 | nt | 4 | -13 | -7 | 1 | 2 | i | 0
O=C(CCSCc1ccc(Cl)cc1)NCc1cccnc1 | 12 | 3 | -16 | nt | -2 | -1 | i | 4
Cc1cccc(C)c1NC(=S)NC(C)(C)CO | -6 | -4 | -10 | nt | 2 | -2 | i | -2
O=C(NCc1ccco1)c1ccccc1NS(=O)(=O)c1ccc(Cl)s1 | -3 | 0 | -4 | -24 | -7 | 0 | i | 11
O=C(N/N=C/c1ccc[nH]1)c1cc2ccccc2cc1O | -16 | 76* | nt | -21 | -1 | -3 | i | 28 | eIF4H FP inh retest=74*;PABP polyA inh retest=40
COc1ccc(CN(C)CC(=O)Nc2cccc(S(=O)(=O)N(C)c3ccccc3)c2)c(OC)c1 | nt | nt | 0 | -1 | 12 | -6 | nt | nt
Cc1cc(F)ccc1NC(=O)C1CCN(C(=O)Nc2ccccc2)CC1 | nt | nt | -13 | -14 | -4 | 1 | i | nt
COc1ccc(COC(=O)NC(C(=O)O)c2ccccc2)cc1 (configuration not stated) | 2 | nt | 13 | -14 | -2 | -1 | i | nt
Cc1nn(Cc2ccc(C(=O)N/N=C/c3ccncc3)o2)c(C)c1Cl | 9 | -3 | -13 | -18 | 5 | -1 | i | 10
Cc1nc(NS(=O)(=O)c2ccccc2)sc1NC(=O)OCCN(C)C | nt | ? | -6 | -28 | -45 | 7 | i | ?
Nc1sc(-c2ccccc2)cc1C(=O)N/N=C/c1ccc(Cl)cc1 | 13 | -11 | nt | -16 | 4 | 5 | i | -6
Cc1c(C)c2ccc(OC(C)C(=O)NCCN3CCOCC3)c(C)c2oc1=O (configuration not stated) | -4 | -12 | -15 | -22 | 2 | 4 | i | -4
COc1ccc2c(CCNC(=O)Nc3ccccc3)c[nH]c2c1 | -17 | -4 | nt | nt | 7 | -4 | i | -3
Cc1ccc(-n2c(=O)c3ccccc3n(CC(=O)C(C)(C)C)c2=O)cc1 | 16 | 0 | -7 | -11 | 2 | 0 | i | -13
CC(=O)c1c(N2CCOCC2)nc(=S)n(-c2ccc([N+](=O)[O-])cc2)c1C | nt | 1 | 10 | -1 | 2 | 4 | i | -7
NC(COCc1ccccc1)c1csc(Nc2ccc(C(=O)c3ccccc3)cc2)n1 (configuration not stated) | -4 | nt | nt | -26 | -6 | -16 | nt | nt
O=C(Nc1nc2c(s1)CCCC2)c1ccc(S(=O)(=O)N2CCCc3ccccc32)cc1 | 64* | -6 | 4 | -11 | 3 | -27 | i | -7
CCc1cc(=O)oc2c(C)c(OC(C)C(=O)N3CC[C@@]4(O)CCCC[C@H]4C3)ccc12 (some centres not stated) | nt | -5 | 5 | -5 | 2 | 6 | i | 3
O=C(NN=C1CCCCC1)Nc1ccccc1Cl | -3 | nt | -6 | -20 | 1 | 2 | i | nt
CCOC(=O)N1CCN(C(=O)Cn2nc(-c3ccc(Cl)cc3)ccc2=O)CC1 | nt | -4 | -15 | nt | 2 | 3 | i | 6
O=C(CC1SC(N2CCCC2)=NC1=O)Nc1ccc(C(=O)Nc2ncccc2O)cc1 (configuration not stated) | 36 | nt | nt | -11 | 12 | 8 | i | nt
CC(C)[C@H](NC(=O)c1cccc(S(=O)(=O)N2CCOCC2)c1)C(=O)OCC(=O)Nc1cccc(Br)c1 | 2 | nt | nt | -3 | 1 | 3 | nt | nt
O=C(NCN1CCN(c2ccccc2F)CC1)c1ccccc1 | -72 | -7 | -11 | -17 | 0 | 6 | i | -10
COc1ccc(NC(=O)c2ccc(-c3ccc([N+](=O)[O-])cc3)o2)cc1 | -4 | -8 | 4 | -9 | 1 | -1 | i | 2
COc1ccc(-c2coc3c(C(=O)NCC4CCOCC4)cccc23)c(C)c1 | 42 | nt | nt | 1 | -7 | -23 | nt | nt
CC(NC(=O)CCSc1nc(-c2ccc3c(c2)OCO3)cc(C(F)(F)F)n1)c1ccccc1 (configuration not stated) | -80 | 6 | -1 | -21 | 3 | 1 | i | 3
CC(=O)N(Cc1cccs1)Cc1cc2cc(C)c(C)cc2nc1Cl | 13 | -8 | 0 | nt | 1 | -3 | i | 104 | eIF4H FP inh retest=-20;PABP polyA inh retest=38
COc1ccc(NC(=O)N2CCCc3cc(C)ccc32)c(OC)c1 | 0 | 1 | 0 | -5 | -2 | 1 | i | -4
CCCCNC(=O)c1cc2c(=O)n3cccc(C)c3nc2n(CCN2CCOCC2)c1=N | nt | -9 | 0 | nt | -2 | -4 | i | 6
Cc1nn(CC2CCCCC2)c(N)c1-c1ccccc1 | nt | -4 | -2 | -15 | nt | nt | i | -3
COc1ccc2ccccc2c1CNCc1ccccn1 | -108 | -6 | -7 | -11 | 8 | 3 | i | 11
COC(=O)c1ccc2nc(C3CCCCC3)c(CC(C)(C)C)n2c1 | 36 | nt | nt | 7 | -12 | -11 | nt | nt
CCCOc1cccc(C(=O)Nc2cccnc2)c1 | nt | -2 | -6 | -6 | 18 | -1 | i | 4
CC(=O)Nc1ccc(S(=O)(=O)c2ccc([N+](=O)[O-])cc2)cc1 | -5 | 1 | 12 | -12 | 3 | -6 | i | -5
Continuation:
SMILES | Env fusion inh | eIF4H FP inh | CSC inhib | Yeast UUG start | MT1-MMP act inh | MT1-MMP act inh RFP | Rce1 inhib | PABP polyA inh | others
O=C(COc1ccc(F)c(Cl)c1)N1CCN(c2ccccn2)CC1 | -19 | -15 | -11 | -1 | 2 | 1 | i | 5
CC1(C)CC(=O)C=C(c2cccs2)C1 | 0 | nt | -9 | -23 | -1 | 1 | i | nt
Cc1ccc(Nc2nc(-c3sc(NC(=O)c4ccco4)nc3C)cs2)cc1 | -47 | -6 | 15 | -9 | 4 | 5 | i | 6
CCCn1c2c(c(O)c(C(=O)Nc3nc4ccccc4s3)c1=O)CCCC2 | 5 | -5 | -5 | -11 | -5 | -5 | i | -5
COCCCn1cnnc1SCC(=O)Nc1ccc(S(=O)(=O)N2CCCC2)cc1 | nt | -1 | -11 | 0 | 2 | 4 | i | 2
COc1cc2c(cc1OC)C1=C(C#N)CC/C(=N\S(=O)(=O)c3cccc(Cl)c3)N1CC2 | -15 | -2 | 0 | -5 | 3 | 3 | i | -11
O=C(Nc1ccc(S(=O)(=O)Nc2ccccn2)cc1)c1cccc([N+](=O)[O-])c1 | 40 | 0 | -8 | -2 | 1 | 1 | i | 4
COc1ccc(N2C(=O)CC(N(Cc3ccc(S(N)(=O)=O)cc3)C(C)=O)C2=O)cc1 (configuration not stated) | nt | -10 | -20 | -20 | 3 | -2 | i | -3
CC1(OC(=O)CCc2ccccc2)C(=O)C=C2C=C(c3ccc(C#N)cc3)N(Cc3ccccc3)C=C2C1=O (configuration not stated) | -49 | 42 | -2 | -12 | 2 | 4 | i | 15
COc1ccccc1S(=O)(=O)N(C)C[C@H]1OCc2cnnn2CCCC(=O)N([C@H](C)CO)C[C@@H]1C | 3 | nt | nt | -14&9 | 2 | 6 | nt | nt
CC1CCC2C(=O)N(c3ccc(C(=O)Oc4cccc5cccnc45)cc3)C(=O)C2C1 (configuration not stated) | -13 | 11 | -13 | nt | 7 | 6 | i | 11
CCOc1ccc(C(=O)O)cc1OC | nt | -5 | 8 | -20 | -1 | 5 | i | 1
